# Screens as filed in PubChem BioAssay.
# VDR inh: vitamin D3 receptor (human) inhibition | P11473 | AID 504847 | actives 0.93% (n = 400,000) | VDR-SRC2-3 peptide fluorescence polarization, 2 h | Potency, µM, for inactives: max response, negative = inhibition, hits mostly inhibitors; active = well fitted inhibition curve with a large enough effect; inconclusive = small, poorly fitted or top-dose-only effect, or another doubt; inactive = no such curve, though single readings can be large or run the other way; note: series mostly up to about 120 µM
# Target sequence (P11473 whole entry, looked up): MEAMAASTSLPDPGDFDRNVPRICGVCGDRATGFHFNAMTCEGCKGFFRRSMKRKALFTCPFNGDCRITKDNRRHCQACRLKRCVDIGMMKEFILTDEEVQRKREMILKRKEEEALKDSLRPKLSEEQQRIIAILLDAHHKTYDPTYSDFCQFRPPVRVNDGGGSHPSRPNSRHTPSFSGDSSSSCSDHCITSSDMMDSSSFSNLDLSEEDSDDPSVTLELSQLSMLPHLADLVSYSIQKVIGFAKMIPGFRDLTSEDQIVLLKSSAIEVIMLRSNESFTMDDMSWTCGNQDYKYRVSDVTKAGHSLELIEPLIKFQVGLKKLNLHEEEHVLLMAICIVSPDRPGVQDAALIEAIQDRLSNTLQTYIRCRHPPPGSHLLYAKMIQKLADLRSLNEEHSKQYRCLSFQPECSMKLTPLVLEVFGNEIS
#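 FP read-out; VDR + SRC2-3 coactivator peptide; 23 nl compound by pintool; 2 h RT incubation; reagents held at 4 deg C, protected from light.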
# An asterisk follows results filed as active; u = inconclusive; & = joins results of further samples; [ ] = dose if it differs, or a comment. % is set by controls: 0 for no effect and ±100 for the full control effect; potency is the fitted concentration of half-maximal effect. A portion of the library, so the mix of outcomes need not match the whole.
Compound | VDR inh
CSc1cccc(NS(=O)(=O)c2ccc3c(c2)oc(=O)n3C)c1 | -8%
Cc1cc(C)cc(NCC(=O)Nc2c(C)cccc2C)c1 | -5%
COc1cc(-c2noc(C)c2C(=O)NCCCN2CCOCC2)cc(OC)c1OC | -7%
CCOC(=O)C(=O)/C(=C\N(C)C)c1onc(-c2ccccc2Cl)c1C(=O)OC | -13%
COc1ccc(S(=O)(=O)n2cnc(C)c2)cc1 | -4%
CC(C)n1nnnc1SCC(=O)NCc1ccc2c(c1)OCO2 | 1%
CCC(CC)NC(=O)/C=C/c1cccc([N+](=O)[O-])c1 | -30%
O=C(NCc1ccccc1F)C1CCCN(C(=O)N2CCOc3ccccc32)C1 (stereo not given) | -4%
COc1ccc(NC(=O)C2CCC(CNS(=O)(=O)c3cccs3)CC2)cc1OC (stereo not given) | 2%&-2%
Cc1ccc(N=Nc2ccc(O)c(/C=N\NC(=O)c3ccc(N)cc3)c2)cc1C | -9%
Cc1ccc(C)c(S(=O)(=O)NCC(c2ccco2)N2CCc3ccccc3C2)c1 (stereo not given) | 5%
CN(CC(=O)Nc1ccc(S(=O)(=O)N(C)C)cc1)Cc1ccc(C(F)(F)F)cc1 | -13%
Cc1ccc(C)c(C(=O)CSc2nc3cc(C(=O)NC4CCCC4)ccc3c(=O)n2CC2CCCO2)c1 (stereo not given) | 11%
O[C@@H]1CN(Cc2ccccc2Cl)CC[C@H]1N1CCOCC1 | -18%
NS(=O)(=O)c1ccc(CCNC(=O)c2ccco2)cc1 | -11%
CCCn1c(O)c(N=NC(=O)c2ccco2)c2ccccc21 | 1%
COc1ccc(-n2nnnc2-c2cccc(OC)c2)cc1 | 10%
Cc1nnc(SC(C)C(=O)Nc2c(C)n(C)n(-c3ccccc3)c2=O)n1N (stereo not given) | -1%
COc1ccc2[nH]c(C(=O)Nc3ccccc3Cl)cc2c1 | 6%
CCOC(=O)c1noc2nc(C)n(Cc3ccc([N+](=O)[O-])cc3)c(=O)c12 | -4%
O=C(CSCc1ccccc1)N1CCN(C(=O)c2ccco2)CC1 | 7%
O=C(CSc1ncnc2c1nnn2Cc1ccc(F)cc1)NCC1CCCO1 (stereo not given) | -17%
Cc1ccc(N(C(=O)c2sc(C)nc2C)C(C(=O)NCc2ccco2)c2ccccc2)cc1 (stereo not given) | 2%
O=[n+]1c2c(n([O-])c3c1CCCC3)CCCC2 | 16%
COC(=O)c1ccc(Oc2nc(N(C)C)nc(N3CCOCC3)n2)cc1 | 34%[activator]

# 7 entries from above, with the structure last:
VDR inh | SMILES
-4% | COc1ccc(S(=O)(=O)n2cnc(C)c2)cc1
-7% | COc1cc(-c2noc(C)c2C(=O)NCCCN2CCOCC2)cc(OC)c1OC
1% | CCCn1c(O)c(N=NC(=O)c2ccco2)c2ccccc21
-13% | CCOC(=O)C(=O)/C(=C\N(C)C)c1onc(-c2ccccc2Cl)c1C(=O)OC
2% | Cc1ccc(N(C(=O)c2sc(C)nc2C)C(C(=O)NCc2ccco2)c2ccccc2)cc1 (stereo not given)
10% | COc1ccc(-n2nnnc2-c2cccc(OC)c2)cc1
-4% | O=C(NCc1ccccc1F)C1CCCN(C(=O)N2CCOc3ccccc32)C1 (stereo not given)

# More entries follow:
Compound | VDR inh
CCOc1ccc(CN(CCc2ccc3c(c2)OCO3)Cc2cc(OC)c(OC)cc2OC)cc1 | -17%
CCOC(=O)C1CCCN(c2c(NCCC(C)C)c(=O)c2=O)C1 (stereo not given) | 6%
O=C(NCC1CCCCC1)c1cc([N+](=O)[O-])ccc1N1CCOCC1 | -6%
CCOC(=O)CNC(=O)COc1coc(CN2CCN(Cc3ccccc3)CC2)cc1=O | -8%
Cc1ccc(S(=O)(=O)NCc2csc(C)n2)c(C)c1 | 13%
COCCCNC(=O)c1c(NC(=O)C2COc3ccccc3O2)sc2c1CCCC2 (stereo not given) | 5%
C[N+](C)(C)CCCN1C(=O)CCCC1=O | -6%
COc1ccc(-c2nc(N)ncc2-c2ccccc2OC)c(O)c1 | 5%
COc1ccccc1CNC(=O)C(NS(=O)(=O)c1ccc2c(c1)CCN2C(C)=O)C(C)C (stereo not given) | -1%
CC(Sc1n[nH]c(=O)[nH]c1=O)C(=O)OCc1ccccc1 (stereo not given) | 2%
Cc1ccc([N+](=O)[O-])cc1Nc1nc(N2CCOCC2)nc(N2CCOCC2)n1 | -2%
O=C(Cn1c(=O)[nH]c2ccccc2c1=O)Nc1ccc2c(c1)OCCO2 | -15%
CC1(C)N=C(c2ccccn2)C(C)(C)N1O | -9%
CCN1CCN(CCCNC(=O)c2cc3cc4ccc(OC)cc4nc3o2)CC1 | -3%
Cn1c(N)c(S(=O)(=O)NCc2ccccc2Cl)c(=O)n(C)c1=O | 13%
Cc1c(C)n(-c2ccccc2)c2ncnc(NCCN(C)C)c12 | 16%
Cc1nc(-c2ccc(Cl)cc2)sc1C1(C)CC(c2ccccc2)=NO1 (stereo not given) | -25%
CC1CCCN(c2oc(-c3cccc4ccccc34)nc2C#N)C1 (stereo not given) | 10%
CC(=O)C1=C(C)NC(SCC(=O)c2ccc(Cl)cc2)=C(C#N)C1CC(C)C (stereo not given) | -13%
O=C(O)c1cc(=O)[nH]c2c(Cl)cccc12 | -2%
O=C(CCc1nc2ccccc2c(=O)[nH]1)NNC(=O)c1ccc(Cl)cc1 | -16%
O=C(N/N=C/c1c[nH]c2ccccc12)c1cc(Cl)ccc1O | 33%[activator]
Cc1onc(C(=O)N2CCN(C(c3ccccc3)c3ccccc3)CC2)c1[N+](=O)[O-] | 8%
O=C(CCN1C(=O)NC2(CCCC2)C1=O)Nc1cccc(S(=O)(=O)N2CCOCC2)c1 | -3%
CCOC(=O)C1=NNC2C(=O)N(Cc3ccccc3)C(=O)C12 (stereo not given) | 2%
O=C1CSC(=S)N1N=Cc1ccc(Cl)cc1Cl | u
COc1ccc(Cl)cc1NC(=O)c1cc(C)no1 | -9%
Cc1ccc(/C=C/C2=C[C@]3(C)C[C@]2(C)[C@H](c2ccc(C)cc2)CC3=O)cc1 | -8%
CCCC/C(O)=C1\C(=O)CCCC1=NCCc1c(C)[nH]c2ccc(OC)cc12 | 7%
Cc1cccc(OCC(=O)Nc2ccc3nc(Nc4cccc(C(F)(F)F)c4)cc(C)c3c2)c1 | -1%
CC(C)OC(=O)C1C2C=CC3(CN(C(C)c4ccc(Br)cc4)C(=O)C13)O2 (stereo not given) | 2%
OC[C@H]1OC(O)(CN2CCOCC2)[C@H](O)[C@@H]1O (stereo not given in full) | 5%
Nc1ncnc(Oc2cccc(C(F)(F)F)c2)c1[N+](=O)[O-] | -1%
COCc1cc(C)nc2sc3c(c12)NC(c1ccccc1C(=O)O)N(c1ccc(OC)cc1)C3=O (stereo not given) | 11%
c1ccc(-c2nn3c(Cn4cnc5ccccc54)nnc3s2)cc1 | u
c1ccc(CSc2nc3ncccn3n2)cc1 | -1%
CCCCOC(=O)CCc1c(C)[nH]c(=O)c(C#N)c1C | 3%
COc1cc(C2C(C(=O)Nc3ccccc3C)=C(C)Nc3ncnn32)ccc1OCC(N)=O (stereo not given) | -4%
Cc1c(C(=O)O)[nH]c2ccc([N+](=O)[O-])cc12 | -6%
O=C(NC1CCCCC1)c1ccc(Cn2c(SCc3ccccc3F)nc3cccnc32)cc1 | -9%
CCCCCCn1c(CN2CCCCC2C)nc2c1c(=O)n(C)c(=O)n2C (stereo not given) | 12%
O=Cc1ccc(OCc2cn(CC(=O)c3ccc(O)cc3)nn2)cc1 | -9%
CN(Cc1ccccc1)c1ncc(C=O)s1 | 27%
N#Cc1cccc(NC(=O)CNC(=O)Cc2ccccc2)c1 | 5%
O=C(NCCCO)c1cc2c([nH]c3ccccc32)c(-c2ccccc2)n1 | -12%
Cc1ccccc1Cn1c(=O)[nH]c2ccccc21 | -5%
CCOc1ccc(S(=O)(=O)Nc2cccc(Cl)c2)cc1 | -2%
O=C(OCCN1CCN(C2=NS(=O)(=O)c3ccccc32)CC1)c1ccccc1F | -12%
CN(C(=O)CSc1nnc(-c2ccncc2)n1-c1ccccc1)C1CCS(=O)(=O)C1 (stereo not given) | -11%
O=C(Nc1ccc2c(c1)Cc1ccccc1-2)c1cccnc1 | -3%

# Next part:
Compound | VDR inh
S=c1[nH]ccn1-c1cccc(Cl)c1Cl | -8%
O=C(CSc1nc2[nH]c(=O)cc(O)c2s1)Nc1ccc(Cl)c(C(F)(F)F)c1 | 4%
Cc1ccc(NS(=O)(=O)c2cc(C(=O)O)ccc2Cl)c(C)c1 | -7%
CC(C)OC(=O)CSc1nnc(-c2cccnc2)n1N | 9%
COc1cc(-c2nn3c(-c4ccccc4)nnc3s2)cc(OC)c1OC | 1%
CC(C)Cc1cc(C(=O)Nc2c(F)cc(F)cc2Br)no1 | 14%
CC(C(=O)N1CCN(c2ccccc2F)CC1)c1ccc([N+](=O)[O-])cc1 (stereo not given) | -13%
CCC(C)c1ccccc1NC(=O)C(C)OC(=O)CN1C(=O)NC(C)(C)C1=O (stereo not given) | -3%
Cc1noc(C)c1COC(=O)c1ccc(F)c(S(=O)(=O)N2CCCCC2)c1 | -7%
COc1ccc(NC(=O)C(c2cc3c(cc2[N+](=O)[O-])OCO3)N2CCN(C=O)CC2)cc1 (stereo not given) | -8%
O=C(c1cccc(F)c1)N1CCC2(CCCN(c3ccc(-c4ccccc4)cc3)C2)CC1 | -13%
COc1cc(/C=N\NC(=O)c2ccc(Cn3nc([N+](=O)[O-])c(Cl)c3C)o2)ccc1O | -7%
C[C@]12CC[C@@H]3c4ccc(O)cc4CC[C@H]3[C@@H]1CC[C@@H]2OC(=O)CCC(=O)O | -9%
CC1=C(C(=O)N2CCCC(CCC(=O)NCc3ccccc3F)C2)OCCO1 (stereo not given) | -18%
CC(C)(C)NC(=O)CCc1nnc(Cc2c[nH]c3ccccc23)o1 | 20%
C=CC[C@H](CC(=O)N[C@H](CO)Cc1ccccc1)C(=O)N[C@@H](COC(=O)[C@@H](CC=C)CC(=O)OC(C)(C)C)Cc1c[nH]c2ccccc12 | 6%
O=C1OC=NC1=Cc1ccccc1 | -14%
CC(C)(C)Nc1ncnc2c1cnn2-c1ccccc1 | -21%
O=C(NCCc1ccc(Cl)cc1)C1COc2ccccc2C1 (stereo not given) | 2%
CNC1C(OC2C(O[C@@H]3C(O)C(O)[C@@H](N=C(N)N)C(O)C3N=C(N)N)OC(C)[C@@]2(O)CO)OC(CO)C(O)C1O (stereo not given in full) | -2%
CC(C)c1cccc(C(C)C)c1NS(=O)(=O)c1cccs1 | -11%
CC1CCN(C(C)C(=O)Nc2cc(S(=O)(=O)N3CCCCC3)ccc2Cl)CC1 (stereo not given) | -19%
CC1CCc2c(sc(/N=C/c3cccnc3)c2C(N)=O)C1 (stereo not given) | -16%
CCN(CC)C(=O)Cn1c(=O)n(CCCC(=O)NCc2ccccc2)c(=O)c2sccc21 | 1%
C=CCn1c(N)c(C(=O)OC(C)CC)c2nc3ccccc3nc21 (stereo not given) | -5%

# Shown with values ahead of the structure: entries from further up.
VDR inh | molecule
-7% | Cc1noc(C)c1COC(=O)c1ccc(F)c(S(=O)(=O)N2CCCCC2)c1
-8% | COc1ccc(NC(=O)C(c2cc3c(cc2[N+](=O)[O-])OCO3)N2CCN(C=O)CC2)cc1 (stereo not given)
-13% | O=C(c1cccc(F)c1)N1CCC2(CCCN(c3ccc(-c4ccccc4)cc3)C2)CC1

# The list goes on.
Compound | VDR inh
CN(C)S(=O)(=O)c1cccn1-c1ncc(C(F)(F)F)cc1Cl | 1%
O=S(=O)(c1ccc(N2CCN(CCO)CC2)nc1)N1CCOCC1 | -11%
Cc1ccc(C)c(OCCn2c(C3CC(=O)N(Cc4ccc(F)cc4)C3)nc3ccccc32)c1 (stereo not given) | 0%
COc1ccc(NC(=O)CSc2ncnc3c2sc2ccccc23)c(OC)c1 | -14%
O=C(CCC(=O)N(CC(=O)NC1CCCC1)c1cccc(F)c1)Nc1nccs1 | 1%
CCOC(=O)c1ccc(NC(=O)CCn2c(=O)oc3ccccc32)cc1 | 5%&1%
CCCCC(=O)O[C@H]1CC[C@H]2[C@@H]3CCc4cc(O)ccc4[C@H]3CC[C@]12C | 16%
COc1ccc(C2CC(=O)C3=C(C2)Nc2ccccc2N(C(=O)C2CC2)C3c2cccnc2)cc1OC (stereo not given) | -7%
C=CCn1c(SCc2cc(=O)n3ccsc3n2)nnc1C1CCCCC1 | -1%
Cc1ccc(C(=O)Nc2ccc(C(=O)N/N=C/c3ccc(C)o3)cc2)cc1 | -2%
CCCCN(C(=O)c1cccc(-n2cnnn2)c1)c1c(N)n(CC(C)C)c(=O)[nH]c1=O | -12%
OC1=C(O)c2nc3ccccc3nc21 | -15%
CCC(C)NC(=O)CSc1nc2n[nH]c(C)c2c(=N)n1-c1cc(Cl)ccc1C (stereo not given) | 7%
O=C(NNS(=O)(=O)c1ccccc1[N+](=O)[O-])c1cccc(Cl)c1 | -14%
CC(=O)N[C@H](Cc1c[nH]c2ccccc12)C(N)=O | 17%
Cc1nn2c(C(F)(F)F)c3c(nc2c1-c1ccccc1)CCC3 | 9%
Cc1cc(-n2c(SCCC#N)nnc2-c2cccnc2)ccc1Cl | -5%
COc1ccc(/C=C(\C#N)C(=O)OCC(=O)NC2CC2)cc1 | -19%
c1ccc(Cn2c(CN3CCCC3)nc3ccccc32)cc1 | u
Cc1ccc(CNC(=O)c2ccc(N3CCC4(CC3)CC(c3cccc(Br)c3)=NO4)c(NC(=O)c3ccc(Cl)c([N+](=O)[O-])c3)c2)cc1 | 10%
CC(=O)c1c(N2CCN(Cc3ccccc3)CC2)nc(=S)n(-c2ccccc2)c1C | -20%
Cc1ccc(S(=O)(=O)C(C#N)c2nc3ccccc3nc2N2CCC(C)CC2)cc1 (stereo not given) | 2%
